# High-throughput results from PubChem.
# FGF22 binding – FGF22 (human) thermal shift binding; AID 651658; recombinant FGF22 thermal shift, SYPRO orange fluorescence; percent of sucrose octasulfate shift, DMSO zero; hit rate 1.5% among 340,000; calls only at 9.99 µM;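 active means melting point raised past a set limit in the mean and every replicate; three in four hits are not shown here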
# Target sequence (Q9HCT0 whole entry, looked up): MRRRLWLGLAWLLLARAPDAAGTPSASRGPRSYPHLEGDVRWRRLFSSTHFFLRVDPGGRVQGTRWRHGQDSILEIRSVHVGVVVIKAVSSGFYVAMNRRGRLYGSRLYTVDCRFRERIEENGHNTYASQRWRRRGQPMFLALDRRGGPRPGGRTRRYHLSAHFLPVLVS
# MLL AF4-AF9 inh – blocks AF4 peptide binding to human AF9; P42568; AlphaScreen, biotin-AF4 peptide binding to FLAG-AF9; inhibition, % at 10 µM; hit rate 0.47% among 350,000;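 active means every replicate reaching a set inhibition limit, whatever the replicate mean, cut at about 25% in these data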;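 further: 0% = plate neutral control median and 100% = total signal loss; the record names both 10 and 1 µM as test concentration; the first replicate is given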
# Target sequence (P42568 whole entry, looked up): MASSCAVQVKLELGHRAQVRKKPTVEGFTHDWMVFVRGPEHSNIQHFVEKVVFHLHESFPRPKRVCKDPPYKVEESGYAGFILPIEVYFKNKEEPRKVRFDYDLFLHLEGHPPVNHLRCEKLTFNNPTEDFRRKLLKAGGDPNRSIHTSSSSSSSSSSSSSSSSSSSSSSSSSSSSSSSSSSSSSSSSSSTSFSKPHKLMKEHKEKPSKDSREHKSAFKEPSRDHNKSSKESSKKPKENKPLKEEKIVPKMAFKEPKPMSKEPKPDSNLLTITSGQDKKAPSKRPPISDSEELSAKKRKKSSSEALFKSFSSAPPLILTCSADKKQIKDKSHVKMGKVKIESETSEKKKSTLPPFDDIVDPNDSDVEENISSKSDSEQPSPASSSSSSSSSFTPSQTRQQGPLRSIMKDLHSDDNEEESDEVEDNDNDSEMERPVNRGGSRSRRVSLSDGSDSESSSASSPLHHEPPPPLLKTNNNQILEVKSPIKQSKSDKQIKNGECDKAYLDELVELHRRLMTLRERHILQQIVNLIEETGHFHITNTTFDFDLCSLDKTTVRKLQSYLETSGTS
# Starred values were filed as active, the others as inactive; i = inactive; / = no result given; + = active, no number.
FGF22 binding	MLL AF4-AF9 inh	SMILES
i	-3.1	CNC[C@H]1Oc2ccc(NC(=O)Cn3cnnn3)cc2C(=O)N([C@H](C)CO)C[C@@H]1C
i	-1.3	C[C@@H]1CN([C@@H](C)CO)C(=O)c2cc(NC(=O)CCCN(C)C)ccc2O[C@H]1CN(C)C(=O)Nc1cccc2ccccc12
i	-1.2	Cc1cc(Br)cn2c(Cc3cccc(F)c3)c(-c3cccc(Cl)c3)nc12
+	6.6	C[C@H]1CN([C@@H](C)CO)S(=O)(=O)c2ccc(/C=C/c3ccccc3)cc2O[C@@H]1CN(C)Cc1ccc(C(=O)O)cc1
i	-0.7	C[C@@H]1CN([C@H](C)CO)C(=O)CCCn2cc(nn2)CO[C@@H]1CN(C)C
i	0.2	C[C@@H]1CCCCO[C@H](CN(C)C(=O)Nc2ccccc2)[C@H](C)CN([C@H](C)CO)C(=O)c2cc(NC(=O)CCCN(C)C)ccc2O1
i	-1.7	O=C(C[C@H]1C[C@@H]2c3cc(NC(=O)CC4CC4)ccc3O[C@@H]2[C@@H](CO)O1)NCc1ccncc1
i	1.4	COc1ccc2c3c([nH]c2c1)[C@H](CO)N(C(=O)C1CCOCC1)CC31CN(Cc2cccc(F)c2)C1
i	4.2	C[C@@H]1CN([C@@H](C)CO)C(=O)c2cc(-c3ccc(F)cc3)cnc2O[C@@H]1CN(C)CC1CC1
i	-1.3	Cc1noc(C)c1NC(=O)Nc1ccc2c(c1)C(=O)N([C@H](C)CO)C[C@@H](C)[C@H](CN(C)Cc1ccc3c(c1)OCO3)O2
i	-3.8	CCCNC(=O)N1CC2(C1)[C@@H](c1ccccc1)[C@H](CO)N2C(=O)CC1CC1
i	-3.1	C[C@H](CO)N1C[C@H](C)[C@H](CN(C)CC2CCCC2)Oc2ncc(-c3cccc(F)c3)cc2C1=O
i	-2.6	C[C@@H]1CN([C@@H](C)CO)C(=O)c2ccccc2-c2ccccc2CO[C@H]1CN(C)C(=O)[C@H](Cc1ccccc1)N(C)C
i	1.5	C[C@@H]1CCCCO[C@@H](CN(C)S(=O)(=O)c2ccccc2)[C@H](C)CN([C@@H](C)CO)C(=O)c2cc(NC(=O)c3ccncc3)ccc2O1
i	-0.1	CCCCCCCCN1C(=O)[C@@H](CC(=O)NCc2cccc3ccccc23)C[C@@]2(C(=O)OC)C1=C[C@H](C1CCCC1)O[C@@H]2C
i	0.1	O=C(C[C@@H]1C=C[C@@H](NC(=O)C2CC2)[C@H](CO)O1)NCc1ccccc1Cl
i	-2.0	CNC[C@@H]1Oc2c(NC(=O)NC3CCCCC3)cccc2C(=O)N([C@H](C)CO)C[C@H]1C
i	0.4	CN1C(=O)c2cc(NC(=O)C3CCCC3)ccc2OC[C@H]2O[C@H](CC(=O)Nc3ccccc3)CC[C@H]21
i	-3.5	COc1ccccc1-c1cnc2c(c1)C(=O)N([C@@H](C)CO)C[C@@H](C)[C@@H](CN(C)C(=O)c1cccnc1)O2
i	8.3	O=C(c1cccnc1)N1CC[C@@H]2[C@@H](CO)Nc3ccc(-c4ccc(F)cc4)cc3[C@@H]21
i	-1.8	Cc1noc(C)c1NC(=O)N(C)C[C@@H]1Oc2ccc(NC(=O)Cn3cnnn3)cc2C(=O)N([C@@H](C)CO)C[C@@H]1C
i	-6.1	C[C@@H]1CN([C@@H](C)CO)C(=O)Cc2cc(NS(=O)(=O)c3ccccc3)ccc2O[C@@H]1CN(C)C
i	-3.1	CC(=O)N(C)C[C@H]1Oc2ncc(-c3cccc(F)c3)cc2C(=O)N([C@@H](C)CO)C[C@@H]1C
i	3.5	C[C@H](CO)N1C[C@H](C)[C@H](CN(C)Cc2ccc3c(c2)OCO3)Oc2ncc(/C=C/c3ccccc3)cc2C1=O
i	-1.2	CNC[C@H]1Oc2ccc(NS(=O)(=O)c3ccc(OC)cc3)cc2C(=O)N([C@H](C)CO)C[C@H]1C
i	0.0	CN1CCN(C(=O)C[C@H]2CC[C@H]3[C@@H](COc4ccc(NC(=O)c5cccs5)cc4C(=O)N3C)O2)CC1
i	-19	C[C@H]1CN([C@@H](C)CO)C(=O)Cc2cc(NC(=O)Nc3ccc(C(F)(F)F)cc3)ccc2O[C@H]1CN(C)C(=O)Nc1cccc2ccccc12
i	-1.0	C[C@@H]1CCCCO[C@H](CN(C)S(=O)(=O)c2cn(C)cn2)[C@H](C)CN([C@@H](C)CO)C(=O)c2cc(NS(=O)(=O)c3cccs3)ccc2O1
i	0.1	COC(=O)[C@]12C[C@H](CC(=O)NCc3ccc(C)o3)C(=O)N(Cc3ccc4c(c3)OCO4)C1=C[C@H](C(C)(C)C)O[C@@H]2C
i	-2.7	COCC#Cc1ccc2c(c1)O[C@H](CN(C)C(=O)CC1CC1)[C@@H](C)CN([C@H](C)CO)S2(=O)=O

FGF22 binding	MLL AF4-AF9 inh	SMILES
i	-1.2	COCCNC(=O)C[C@H]1CC[C@@H]2[C@@H](COc3ccc(NC(=O)Nc4ccccc4)cc3C(=O)N2C)O1
i	-13	CO[C@@H]1CN(C)C(=O)c2ccc(NC(=O)NC(C)C)cc2OC[C@@H](C)N(CC2CC2)C[C@H]1C
i	1.1	CCCC#Cc1ccc2c(c1)O[C@H](CN(C)Cc1ccccc1)[C@@H](C)CN([C@H](C)CO)S2(=O)=O
i	0.1	C[C@@H]1CN([C@H](C)CO)C(=O)c2cc(C3=CCCC3)cnc2O[C@H]1CN(C)C(=O)Cc1ccncc1
i	-4.3	CN(C)C(=O)C[C@H]1CC[C@@H]2[C@H](COC[C@@H](O)CN2S(=O)(=O)c2ccccc2)O1
i	-1.5	COCCNC(=O)C[C@H]1CC[C@H]2[C@@H](COc3ccc(NC(=O)C4CCCC4)cc3C(=O)N2C)O1
i	-0.8	C[C@@H]1CN([C@H](C)CO)C(=O)c2cc(C#Cc3cccc(F)c3)cnc2O[C@@H]1CN(C)C(=O)c1ccccc1F
i	-0.5	CCO[C@@H]1OC(C(=O)N2CCN(Cc3ccc4c(c3)OCO4)CC2)=C[C@H](c2ccccc2)[C@H]1CCCO
i	0.1	CC(C)CC#Cc1cnc2c(c1)C(=O)N([C@H](C)CO)C[C@@H](C)[C@@H](CN(C)C(=O)c1ccc(F)cc1)O2
i	13	CNC[C@H]1Oc2cc(C#Cc3ccccc3OC)ccc2S(=O)(=O)N([C@H](C)CO)C[C@@H]1C
/	-5.7	CCOC(=O)C1=C(C(=O)OCC)C2N(Cc3ccc(C#N)cc3)c3ccccc3[C@@]23C[C@@H](C(=O)OC)N(S(=O)(=O)c2ccc(OC)cc2)C3=N1 (some centres not stated)
i	2.7	COCC(=O)N(C)C[C@H]1Oc2cc(-c3cncnc3)ccc2S(=O)(=O)N([C@@H](C)CO)C[C@@H]1C
i	0.6	COc1ccc2c3c(n(C)c2c1)[C@H](CO)N(Cc1cccnc1)CC31CN(Cc2cccnc2)C1
i	17	COC(=O)C1=C(C)N(Cc2ccc(C(F)(F)F)cc2)C(=NCc2ccc(OC)cc2)NC1c1ccccc1 (configuration not stated)
i	-0.1	CCCNC(=O)Nc1ccc2c(c1)C(=O)N(C)C[C@@H](OC)[C@@H](C)CN(C)[C@@H](C)CO2
i	0.4	O=C(O)[C@@H]1[C@@H](CO)[C@@H]2Cn3c(ccc(-c4ccc(F)cc4)c3=O)[C@@H]2N1CCc1ccccc1
i	-1.1	O=C(C[C@@H]1C=C[C@@H](NS(=O)(=O)c2ccccc2)[C@@H](CO)O1)NCc1ccccc1F
i	0.8	CCN1[C@@H]2c3ccc(-c4ccc(OC)cc4)c(=O)n3C[C@@H]2[C@@H](CO)[C@@H]1C(=O)NC1CCC1
i	-1.2	C[C@@H]1CN([C@H](C)CO)C(=O)CCCn2nncc2CO[C@@H]1CN(C)C
i	-1.3	C[C@@H]1CN([C@H](C)CO)C(=O)Cc2cc(NS(=O)(=O)c3ccc(Cl)cc3)ccc2O[C@@H]1CN(C)C(=O)Nc1ccccc1
i	-6.8	C[C@H](CO)N1C[C@H](C)[C@H](CN(C)S(=O)(=O)c2cccs2)OCCCC[C@H](C)Oc2ccc(NC(=O)Nc3ccc(F)cc3)cc2C1=O
i	-1.0	C[C@H](NC(=O)N(C)C[C@@H]1OCc2ccccc2-c2ccccc2C(=O)N([C@H](C)CO)C[C@H]1C)c1ccccc1
i	-14	C[C@@H]1CN([C@H](C)CO)C(=O)c2cc(NS(C)(=O)=O)ccc2O[C@@H]1CN(C)Cc1ccc(C(F)(F)F)cc1
i	4.3	CCc1cccc(NC(=O)O[C@H]2[C@H](OC(=O)Nc3ccc4c(c3)OCO4)[C@@H](OC(=O)Nc3ccc4c(c3)OCO4)[C@@H](OC)O[C@@H]2CO)c1
i	1.1	CCN(C[C@@H]1N[C@@H](CO)[C@H]1c1ccc(-c2cccc(F)c2)cc1)C(=O)COC
i	-0.6	CCC(=O)Nc1ccc2c(c1)OC[C@H](C)N(C(=O)c1ccccc1F)C[C@@H](C)[C@H](OC)CN(C)C2=O
i	1.2	C[C@H]1CN([C@@H](C)CO)C(=O)Cc2cc(NS(=O)(=O)c3ccccc3)ccc2O[C@@H]1CN(C)C(=O)Nc1ccc(C(F)(F)F)cc1
i	-1.7	CC(=O)N[C@@H]1CC[C@H](CCNC(=O)C2CCC2)O[C@@H]1CO
i	0.6	COC(=O)C[C@H]1CC[C@@H]2[C@@H](COc3ccc(NC(=O)Nc4c(C)noc4C)cc3C(=O)N2C)O1
i	2.4	COc1ccc(CN(C)C[C@H]2OCCCC[C@@H](C)Oc3ccc(NS(=O)(=O)c4ccccc4)cc3C(=O)N([C@@H](C)CO)C[C@H]2C)cc1

# In another format: entries from further up
# Every second line gives: FGF22 binding | MLL AF4-AF9 inh
> CCOC(=O)C1=C(C(=O)OCC)C2N(Cc3ccc(C#N)cc3)c3ccccc3[C@@]23C[C@@H](C(=O)OC)N(S(=O)(=O)c2ccc(OC)cc2)C3=N1 (some centres not stated)
 : / | -5.7
> COCC(=O)N(C)C[C@H]1Oc2cc(-c3cncnc3)ccc2S(=O)(=O)N([C@@H](C)CO)C[C@@H]1C
 : i | 2.7
> COc1ccc2c3c(n(C)c2c1)[C@H](CO)N(Cc1cccnc1)CC31CN(Cc2cccnc2)C1
 : i | 0.6

# Returning to the listing, repeating the 7 entries before the break.
FGF22 binding	MLL AF4-AF9 inh	SMILES
i	4.3	CCc1cccc(NC(=O)O[C@H]2[C@H](OC(=O)Nc3ccc4c(c3)OCO4)[C@@H](OC(=O)Nc3ccc4c(c3)OCO4)[C@@H](OC)O[C@@H]2CO)c1
i	1.1	CCN(C[C@@H]1N[C@@H](CO)[C@H]1c1ccc(-c2cccc(F)c2)cc1)C(=O)COC
i	-0.6	CCC(=O)Nc1ccc2c(c1)OC[C@H](C)N(C(=O)c1ccccc1F)C[C@@H](C)[C@H](OC)CN(C)C2=O
i	1.2	C[C@H]1CN([C@@H](C)CO)C(=O)Cc2cc(NS(=O)(=O)c3ccccc3)ccc2O[C@@H]1CN(C)C(=O)Nc1ccc(C(F)(F)F)cc1
i	-1.7	CC(=O)N[C@@H]1CC[C@H](CCNC(=O)C2CCC2)O[C@@H]1CO
i	0.6	COC(=O)C[C@H]1CC[C@@H]2[C@@H](COc3ccc(NC(=O)Nc4c(C)noc4C)cc3C(=O)N2C)O1
i	2.4	COc1ccc(CN(C)C[C@H]2OCCCC[C@@H](C)Oc3ccc(NS(=O)(=O)c4ccccc4)cc3C(=O)N([C@@H](C)CO)C[C@H]2C)cc1
i	7.2	CN1C(=O)c2cc(NC(=O)c3cnccn3)ccc2OC[C@@H]2O[C@H](CC(=O)N[C@H]3CCN(Cc4ccccc4)C3)CC[C@@H]21
/	4.2	N#Cc1ccc(S(=O)(=O)N2CCCc3nc(-c4ccccc4)ccc32)cc1
i	1.5	NC1=NC2(CS1)CSC(N)=N2
i	-14	O=C(C[C@@H]1C[C@H]2c3cc(NC(=O)Nc4ccccc4F)ccc3O[C@H]2[C@@H](CO)O1)NC1CCCC1
i	-0.1	COCc1cn(CC[C@@H]2CC[C@H](NC(=O)Nc3ccc(OC)cc3)[C@@H](CO)O2)nn1
i	-1.4	CN(C)CC(=O)N1[C@H](C#N)[C@@H](c2ccc(C#Cc3cccnc3)cc2)[C@H]1CO
i	-13	CC(C)NC(=O)N1C[C@H]2[C@@H](c3ccccc31)[C@H](CO)N2C(=O)C1CCCC1
i	-1.2	C[C@H]1CN([C@@H](C)CO)C(=O)c2cc(NC(=O)Nc3ccc(C(F)(F)F)cc3)ccc2O[C@H]1CN(C)Cc1ccc(C(F)(F)F)cc1
i	-1.7	C[C@H]1CN([C@@H](C)CO)C(=O)c2cccc(NC(=O)Nc3ccc4c(c3)OCO4)c2O[C@H]1CN(C)Cc1ccc(C(=O)O)cc1
i	-0.8	Cc1ccc(S(=O)(=O)Nc2ccc3c(c2)CC(=O)N([C@@H](C)CO)C[C@@H](C)[C@@H](CN(C)S(=O)(=O)c2c(C)noc2C)O3)cc1
i	6.9	CNC[C@@H]1Oc2ncc(C#CCC3CCCC3)cc2C(=O)N([C@H](C)CO)C[C@H]1C
i	-2.1	COCC(=O)Nc1ccc2c(c1)C(=O)N(C)C[C@@H](OC)[C@@H](C)CN(Cc1cccc(F)c1)[C@@H](C)CO2
i	-0.7	Cc1noc(C)c1NC(=O)Nc1cccc2c1O[C@H](CN(C)S(C)(=O)=O)[C@H](C)CN([C@@H](C)CO)C2=O
i	-7.0	Cc1ccccc1-c1ccc([C@H]2[C@H]3CN(C(=O)Nc4ccc(F)cc4)CCCCN3[C@H]2CO)cc1
i	-3.7	C[C@@H]1CN([C@H](C)CO)S(=O)(=O)c2ccc(C#C[C@@H](C)O)cc2O[C@H]1CN(C)C(=O)c1ccncc1
i	-1.9	C[C@@H]1CN([C@H](C)CO)C(=O)Cc2cc(NS(=O)(=O)c3ccc(F)cc3)ccc2O[C@@H]1CN(C)S(=O)(=O)c1ccccc1
i	-5.7	COc1ccc(C#Cc2ccc([C@@H]3[C@H](CO)N4C(=O)CN(C(=O)NC(C)C)C[C@@H]34)cc2)cc1
i	8.2	CN(C)CC(=O)Nc1ccc2c(c1)[C@H]1C[C@@H](CC(=O)NCc3ccc(-c4ccccc4)cc3)O[C@H](CO)[C@H]1O2
i	8.2	CC(C)NC(=O)NCC[C@H]1CC[C@@H](NC(=O)c2ccc(F)cc2)[C@@H](CO)O1

# This is a subset (hit frequency here may not be typical).
